Source: PubChem BioAssay
A1 inh: A1 inhibition; MEF A1-2A-BIM cells, caspase-Glo luminescence, 3 h; percent of clofoctol signal, DMSO as zero; caspase activation, % (test concentration not listed); actives 0.51% (n = 21,000);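 active = most replicate scores above 10, or exactly half above 10 with mean activity above 10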;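 also: effector caspase 3 and 7 activity cleaving a DEVD luciferin substrate; 50 nL library stock added to about 30 µL; numbers are from one replicate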
BJeLR viability: lowers viability of BJeLR cells | BJeLR fibroblasts viability, CellTiterGlo ATP luminescence, 48 h; HRASV12, hTERT and SV40 LT/ST transformed | viability loss activity score, % (no concentration beside the values) | actives 0.64% (n = 30,000) | AID 2275; in the data active = viability loss activity score above about 50%; about a fifth of its hits are not listed in these tables;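 also: higher score means fewer live cells and less ATP luminescence; stock transfer was 50 or 100 nL into about 30 µL; 0% = vehicle wells and 100% = a reference killing control; one replicate is shown; the record names a cut of 85%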
* hit, by the source's call; nt = not tested or not shown. These rows are one share of the data; count on the stated rates, not on these rows.

SMILES	A1 inh	BJeLR viability
COc1ccc(S(=O)(=O)N(C)C[C@@H]2Oc3ccc(NC(=O)CCN4CCOCC4)cc3C(=O)N([C@@H](C)CO)C[C@@H]2C)cc1	-0.2	-0.9
CC(=O)c1cc2c(cc1O)OC(C)(C)C=C2	0.5	2.0
COC(=O)c1ccccc1NC(=O)c1cccnc1	0.2	2.6
COc1cccc(OCCSc2nc(-c3ccccc3)cc(=O)[nH]2)c1	nt	-2.1
Cc1ccc(CSc2ncc(C(F)(F)F)cc2Cl)cc1	0.2	-1.2
C[C@H](CO)N1C[C@H](C)[C@@H](CN(C)C(=O)Nc2ccc3c(c2)OCO3)Oc2c(NS(=O)(=O)c3ccccc3)cccc2C1=O	nt	5.7
Cc1cc(C(=O)Nc2cccc3c2O[C@H](CN(C)C(=O)Nc2ccc(F)cc2)[C@H](C)CN([C@H](C)CO)C3=O)n(C)n1	nt	18.4
C[C@H](CO)N1C[C@H](C)[C@@H](CN(C)Cc2ccc3c(c2)OCO3)Oc2ccc(NC(=O)Nc3ccccc3)cc2C1=O	0.0	1.6
CCOc1ccc(NC(=O)CSc2oc(-c3ccccc3)nc2S(=O)(=O)c2ccccc2)cc1	nt	-2.3
c1ccc2c(c1)OCC(CNCC1COc3ccccc3O1)O2 (centres undefined)	nt	0.5
Cn1c(Sc2cnn(-c3ccccc3)c(=O)c2Br)nnc1-c1ccccc1	1.1	-25.4
CC(C)NC(=O)N(C)C[C@H]1Oc2ccc(NS(C)(=O)=O)cc2C(=O)N([C@@H](C)CO)C[C@H]1C	-0.3	4.9
C[C@@H]1CN([C@H](C)CO)C(=O)c2cc(NS(=O)(=O)c3ccc(Cl)cc3)ccc2O[C@H]1CN(C)Cc1ccccc1	0.2	-3.8
C[C@H](CO)N1C[C@H](C)[C@@H](CN(C)Cc2ccc(C(=O)O)cc2)Oc2c(NS(C)(=O)=O)cccc2C1=O	nt	5.7
COc1ccc(NC(=O)N(C)C[C@@H]2Oc3c(NS(C)(=O)=O)cccc3C(=O)N([C@@H](C)CO)C[C@@H]2C)cc1	nt	-4.0
COc1ccc(NC(=O)Nc2ccc3c(c2)C(=O)N([C@@H](C)CO)C[C@H](C)[C@H](CN(C)C)O3)cc1	0.0	-3.5
CC1=NN(C(=O)CCc2ccccc2)C(O)(c2ccccc2)C1 (centres undefined)	-0.1	-1.7
COc1cccc2oc(-c3ccccc3)cc(=O)c12	-6.0	7.9
C[C@@H]1CN([C@@H](C)CO)C(=O)c2cccc(NC(=O)Nc3cccc4ccccc34)c2O[C@@H]1CN(C)CC1CC1	nt	0.9
C[C@@H]1CN([C@H](C)CO)C(=O)c2cccc(NC(=O)C3CC3)c2O[C@H]1CN(C)Cc1ccc(C(F)(F)F)cc1	nt	-2.9
CC(C)NC(=O)N(C)C[C@H]1Oc2ccc(NC(=O)Cc3cn(C)c4ccccc34)cc2C(=O)N([C@@H](C)CO)C[C@H]1C	-0.3	-7.6
CNC[C@@H]1Oc2ccc(NC(=O)Nc3ccc4c(c3)OCO4)cc2C(=O)N([C@@H](C)CO)C[C@@H]1C	-0.3	2.6
C[C@@H]1CN([C@@H](C)CO)C(=O)c2cc(NS(=O)(=O)c3ccc(Cl)cc3)ccc2O[C@H]1CN(C)C(=O)Nc1ccc2c(c1)OCO2	0.2	-1.8
Cc1ccc(S(=O)(=O)Nc2cccc3c2O[C@H](CN(C)S(=O)(=O)c2cn(C)cn2)[C@@H](C)CN([C@@H](C)CO)C3=O)cc1	nt	-5.7
C[C@@H]1CN([C@@H](C)CO)C(=O)c2cccc(NS(=O)(=O)c3ccccc3)c2O[C@H]1CN(C)CC1CCCCC1	nt	-0.7

Next entries
SMILES	A1 inh	BJeLR viability
C[C@@H]1CN([C@@H](C)CO)C(=O)c2cccc(NS(=O)(=O)c3ccc(F)cc3)c2O[C@H]1CN(C)S(=O)(=O)c1cccs1	nt	1.6
O=C1NCCN1C(=O)C(c1ccccc1)c1ccccc1	nt	1.2
O=C(/C=C/c1ccccc1)N1CCC(c2ccccc2)C1 (centres undefined)	nt	-3.1
C[C@@H]1CN([C@H](C)CO)C(=O)c2cc(NC(=O)Nc3ccccc3)ccc2O[C@@H]1CN(C)C(=O)Nc1cccc2ccccc12	-0.2	5.8
C[C@@H]1CN([C@@H](C)CO)C(=O)c2cccc(NS(=O)(=O)c3ccc(Cl)cc3)c2O[C@H]1CN(C)C(=O)Nc1ccccc1	nt	0.5
CC(C)NC(=O)Nc1ccc2c(c1)C(=O)N([C@@H](C)CO)C[C@@H](C)[C@H](CN(C)C(=O)Nc1cccc3ccccc13)O2	1.1	-0.4
Cc1ccc(S(=O)(=O)N(C)C[C@@H]2Oc3ccc(NC(=O)CCC(F)(F)F)cc3C(=O)N([C@@H](C)CO)C[C@H]2C)cc1	-0.7	-0.8
CCN1/C(=C/C2=CC(=O)CC(C)(C)C2)Sc2ccccc21	-0.9	7.2
Cc1ccc(S(=O)(=O)Nc2cccc3c2O[C@@H](CN(C)C(=O)Nc2ccccc2)[C@@H](C)CN([C@@H](C)CO)C3=O)cc1	nt	-2.9
C[C@@H]1CN([C@H](C)CO)C(=O)c2cccc(NC(=O)Nc3ccc4c(c3)OCO4)c2O[C@H]1CN(C)Cc1ccccc1	nt	-2.8
C[C@@H]1CN([C@@H](C)CO)C(=O)c2cc(NS(=O)(=O)c3cn(C)cn3)ccc2O[C@H]1CN(C)S(=O)(=O)c1ccc(Cl)cc1	0.1	-1.0
Cc1noc(C)c1S(=O)(=O)Nc1ccc2c(c1)C(=O)N([C@@H](C)CO)C[C@H](C)[C@@H](CN(C)S(=O)(=O)c1ccc(Cl)cc1)O2	-0.2	-0.6
CCC(SC1=Nc2ccccc2C2=NC(c3ccccc3)C(=O)N12)C(=O)NCc1ccc(C)cc1 (centres undefined)	nt	14.4
C[C@@H]1CN([C@H](C)CO)C(=O)c2cccc(N(C)C)c2O[C@H]1CN(C)C(=O)NC1CCCCC1	nt	0.2
N#Cc1ccc(C(=O)Cn2cc(C(F)(F)F)ccc2=O)cc1	1.3	1.1
CC(C)NC(=O)Nc1ccc2c(c1)C(=O)N([C@H](C)CO)C[C@H](C)[C@@H](CN(C)S(=O)(=O)c1ccc(F)cc1)O2	0.5	-1.1
C[C@H]1CN([C@@H](C)CO)C(=O)c2cc(NS(C)(=O)=O)ccc2O[C@@H]1CN(C)C(=O)Nc1ccccc1	0.1	-0.8
COc1ccc(C(=O)NCCn2cc(SC(C)c3ccccc3)c3ccccc32)cc1 (centres undefined)	0.2	0.0
C[C@@H]1CN([C@H](C)CO)C(=O)c2cc(NC(=O)Cc3cn(C)c4ccccc34)ccc2O[C@H]1CN(C)Cc1ccc(Cl)c(Cl)c1	-1.1	0.9
C[C@@H]1CN([C@@H](C)CO)C(=O)c2cc(NC(=O)CCCN(C)C)ccc2O[C@H]1CN(C)S(=O)(=O)c1ccc(F)cc1	0.7	1.1
COCc1nc2c([nH]1)c(=O)n(C)c(=O)n2CC(C)C	-0.1	1.0
C[C@@H]1CN([C@H](C)CO)C(=O)c2cc(NC(=O)CCN3CCOCC3)ccc2O[C@@H]1CN(C)S(=O)(=O)c1ccccc1	0.7	11.1
Cc1noc(C)c1NC(=O)Nc1cccc2c1O[C@@H](CN(C)C(=O)NC(C)C)[C@@H](C)CN([C@@H](C)CO)C2=O	nt	-6.1
C[C@@H]1CN([C@H](C)CO)C(=O)c2cc(NC(=O)C3CC3)ccc2O[C@H]1CN(C)C(=O)Nc1ccccc1	0.0	2.7
Cc1cccc(OCC(=O)N2CCCc3ccccc32)c1	1.6	-2.0

Additional compounds.
SMILES	A1 inh	BJeLR viability
C[C@@H]1CN([C@H](C)CO)C(=O)c2cc(NS(=O)(=O)c3ccc(Cl)cc3)ccc2O[C@@H]1CN(C)S(=O)(=O)c1cccs1	0.1	2.6
C[C@@H]1CN([C@@H](C)CO)C(=O)c2cc(NC(=O)CCCN(C)C)ccc2O[C@@H]1CN(C)S(=O)(=O)c1ccccc1	-0.2	1.7
CCc1ccc(-c2csc(Nc3ccc(S(=O)(=O)Nc4cc(OC)nc(OC)n4)cc3)n2)cc1	0.5	-1.9
C[C@H]1O[C@@H](O[C@H]2C[C@H]3C(=O)C[C@]4(C)C(=CCC5[C@@]6(C)CC[C@H](O[C@@H]7OC[C@@H](O)[C@H](O)[C@H]7O)[C@@](C)(C=O)C6CC[C@]54C)[C@@H]3CC2(C)C)[C@H](O)[C@@H](O)[C@@H]1O[C@@H]1O[C@H](C(=O)O)[C@@H](O)[C@H](O)[C@H]1O (some centres undefined)	0.4	-0.3
C[C@H](CO)N1C[C@H](C)[C@@H](CN(C)Cc2ccccc2)Oc2ccc(NC(=O)CCCN(C)C)cc2C1=O	0.9	-1.9
O=C(CCCCn1c(=O)[nH]c2ccsc2c1=O)NCc1ccccc1	nt	-2.7
COc1ccc(Cl)cc1C(=O)NCCc1ccc(S(=O)(=O)NC(=O)NC2CCCCC2)cc1	-1.5	-0.9
O=C(NCc1ccccc1)C(Cc1ccccc1)NS(=O)(=O)c1ccc(Br)cc1 (centres undefined)	0.5	-5.5
CC1CC[C@]2(C(=O)O)CC[C@]3(C(=O)O)C(=CCC4[C@@]5(C)CC[C@H](OC6OC(C)C(O)C(OC7OC(CO)C(O)C(O)C7O)C6O)C(C)(C)C5CC[C@]43C)C2C1C (some centres undefined)	0.3	-0.6
CNC[C@@H]1Oc2c(NC(=O)c3ccc(-c4nccs4)cc3)cccc2C(=O)N([C@H](C)CO)C[C@@H]1C	nt	-0.7
CN(C)CCC(=O)N1c2ccccc2Sc2ccc(C(F)(F)F)cc21	-0.3	1.0
CCn1cc(SCC(=O)N2N=C(c3cccs3)CC2c2ccc(C)cc2)c2ccccc21 (centres undefined)	0.5	6.1
CNC[C@@H]1Oc2ccc(NC(=O)C3CC3)cc2C(=O)N([C@@H](C)CO)C[C@@H]1C	0.4	4.2
O=C(Nc1cccc(-c2cn3cccnc3n2)c1)c1ccccc1C(F)(F)F	nt	-1.1
Cc1c(C(=O)NCCCN2CCOCC2)oc2ccc3c(c12)C(=O)CC(C)(c1ccc(Cl)cc1)O3 (centres undefined)	-0.9	0.8
C[C@H]1CN([C@@H](C)CO)C(=O)c2cc(NC(=O)CCCCCC(=O)Nc3ccccc3N)ccc2O[C@@H]1CN(C)C	nt	1.1
C[C@@H]1CN([C@H](C)CO)C(=O)c2cc(NS(=O)(=O)c3cn(C)cn3)ccc2O[C@H]1CN(C)Cc1ccc(Oc2ccccc2)cc1	0.3	-4.7
C/C=C(/C)C(=O)O[C@H]1[C@H](OC(=O)/C=C/c2ccccc2)[C@@]23C(CC1(C)C)[C@]1(CCC4[C@@]5(C)CC[C@H](O[C@@H]6O[C@H](C(=O)O)[C@@H](O)[C@H](O[C@@H]7O[C@H](CO)[C@H](O)[C@H](O)[C@H]7O[C@@H]7O[C@@H](C)[C@H](O)[C@@H](O)[C@H]7O[C@@H]7OC[C@](O)(CO)[C@H]7O)[C@H]6O[C@@H]6O[C@H](CO)[C@H](O)[C@H](O)[C@H]6O)C(C)(C)C5CC[C@@]4(C)[C@]1(C)C[C@H]2O)O[C@H]3O (some centres undefined)	-3.5	79.9*
CC(C)NC(=O)Nc1ccc2c(c1)C(=O)N([C@@H](C)CO)C[C@H](C)[C@@H](CN(C)Cc1ccc(C(F)(F)F)cc1)O2	-0.7	2.9
CCC(Sc1nncn2c1cc1sccc12)C(=O)N1CCOCC1 (centres undefined)	1.5	-2.7
COc1ccc(NC(C)=O)cc1C	0.5	-0.4
C[C@@H]1CN([C@H](C)CO)C(=O)c2cc(NS(=O)(=O)c3ccc(F)cc3)ccc2O[C@@H]1CN(C)C(=O)Nc1cccc2ccccc12	-0.3	1.1
Cc1ncn2cc(-c3ccc(Cl)cc3Cl)[nH]c(=O)c12	1.0	-1.7
C[C@H]1CN([C@@H](C)CO)C(=O)c2cc(NC(=O)Nc3ccc(C(F)(F)F)cc3)ccc2O[C@@H]1CN(C)S(=O)(=O)c1cccs1	-0.2	-2.6
CC(C)NC(=O)Nc1cccc2c1O[C@H](CN(C)S(=O)(=O)c1cccs1)[C@H](C)CN([C@H](C)CO)C2=O	nt	1.4
C[C@H]1CN([C@@H](C)CO)C(=O)c2cc(NC(=O)c3ccncc3)ccc2O[C@@H]1CN(C)C	1.4	4.0
O=C(Nc1ccc2snnc2c1)NC1CCCC1	-0.3	-1.9

Shown with values under each structure: part of the list above.
Results follow in this order: A1 inh | BJeLR viability
N#Cc1ccc(C(=O)Cn2cc(C(F)(F)F)ccc2=O)cc1
  1.3 | 1.1
O=C(Nc1cccc(-c2cn3cccnc3n2)c1)c1ccccc1C(F)(F)F
  nt | -1.1
C[C@@H]1CN([C@@H](C)CO)C(=O)c2cc(NC(=O)CCCN(C)C)ccc2O[C@@H]1CN(C)S(=O)(=O)c1ccccc1
  -0.2 | 1.7
Cc1ccc(S(=O)(=O)Nc2cccc3c2O[C@@H](CN(C)C(=O)Nc2ccccc2)[C@@H](C)CN([C@@H](C)CO)C3=O)cc1
  nt | -2.9
COc1ccc(NC(C)=O)cc1C
  0.5 | -0.4

Four of the compounds above, with values under each structure.
The line under a structure holds: A1 inh	BJeLR viability
- COc1ccc(NC(=O)Nc2ccc3c(c2)C(=O)N([C@@H](C)CO)C[C@H](C)[C@H](CN(C)C)O3)cc1
  0.0	-3.5
- CC1=NN(C(=O)CCc2ccccc2)C(O)(c2ccccc2)C1 (centres undefined)
  -0.1	-1.7
- COc1cccc2oc(-c3ccccc3)cc(=O)c12
  -6.0	7.9
- C[C@@H]1CN([C@@H](C)CO)C(=O)c2cccc(NC(=O)Nc3cccc4ccccc34)c2O[C@@H]1CN(C)CC1CC1
  nt	0.9
